# Compound activity as filed in PubChem BioAssay.
# RecA splice inh = Mtb RecA intein splicing inhibitors, primary screen, biochemical, fluorescence, HTS | cell-free RecA intein splicing | inhibition, %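 (about 9 µM by stock and volumes)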 | actives 0.75% (n = 290,000) | AID 2221, 2009; in the data active means inhibition above about 30%; inconclusive means no clear call, values can overlap the other calls;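 further: 0% = vehicle wells and 100% = reference inhibitor control wells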
# Target sequence (P9WHJ3 whole entry, looked up, canonical isoform): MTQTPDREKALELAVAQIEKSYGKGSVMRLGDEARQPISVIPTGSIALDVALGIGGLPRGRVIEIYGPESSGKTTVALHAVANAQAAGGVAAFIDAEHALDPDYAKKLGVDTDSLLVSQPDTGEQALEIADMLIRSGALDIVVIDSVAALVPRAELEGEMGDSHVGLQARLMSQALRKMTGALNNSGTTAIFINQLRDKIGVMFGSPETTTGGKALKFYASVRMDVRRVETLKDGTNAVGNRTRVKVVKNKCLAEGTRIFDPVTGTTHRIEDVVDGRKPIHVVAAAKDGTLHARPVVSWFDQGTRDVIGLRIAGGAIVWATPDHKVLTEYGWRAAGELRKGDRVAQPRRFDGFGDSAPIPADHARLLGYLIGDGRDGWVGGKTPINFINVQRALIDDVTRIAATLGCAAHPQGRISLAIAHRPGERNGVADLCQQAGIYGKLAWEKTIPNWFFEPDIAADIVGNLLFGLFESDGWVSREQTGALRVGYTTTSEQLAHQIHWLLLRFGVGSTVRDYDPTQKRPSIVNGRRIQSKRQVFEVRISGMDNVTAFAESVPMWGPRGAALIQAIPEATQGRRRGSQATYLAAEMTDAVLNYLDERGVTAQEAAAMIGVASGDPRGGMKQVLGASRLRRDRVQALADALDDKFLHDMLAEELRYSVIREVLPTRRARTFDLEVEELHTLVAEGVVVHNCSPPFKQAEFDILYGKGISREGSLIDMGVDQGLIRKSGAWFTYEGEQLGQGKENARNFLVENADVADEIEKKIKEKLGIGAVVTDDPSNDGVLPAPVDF
# Mtb bLac sens = beta-lactam sensitization of Mtb H37Rv, H37Rv; M. tuberculosis H37Rv growth with meropenem, percent inhibition; hits of this screen are not shown here; inhibition, % at 25 µM; actives 0.27% (n = 330,000);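 active means about 74% or more and at least 40 points above the plate without the antibiotic, then above 30% in a dose series; inconclusive means first-round hits that could not be retested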;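 further: growth measured after seven days incubation then overnight dye step; 0% = bacteria only wells and 100% = bacteria with antibiotic; twin plates without the antibiotic show which effects depend on it; some results filed as inactive read as strong as hits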
# Mtb growth = M. tuberculosis H37Rv growth inhibitors, H37Rv strain (AID 1626) | M. tuberculosis H37Rv growth inhibition; higher % means a stronger effect | one-dose inhibition, % at 10 µM; IC50 in µM for titrated hits | actives 0.95% (n = 220,000);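 active means confirmed in a dose series; inconclusive means inhibition above 80% but not taken into the dose series; inactive means below 80% or under 30% at every dose of the series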;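 further: bacteria incubated seven days before Alamar blue readout; 0% = bacteria only wells and 100% = bacteria with antibiotic wells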
# YopH inh = YopH tyrosine phosphatase inhibitors, primary screen, biochemical, fluorescence Ex485/Em525; inhibition, %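 (about 10 µM by stock and volumes)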; actives 0.16% (n = 140,000); AID 898, 2007;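 active means inhibition of 50% or more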;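 further: controls were vehicle for no effect and minimum signal wells for full effect; inactives centre near -20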
# Arbovirus inh = antivirals against arbovirus infection, primary screen, cell-based, full library, 10K replicate subset; arbovirus infection cell-based antiviral screen; inhibition, % at 10 µM; actives 0.37% (n = 200,000);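 active means inhibition from about 30%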;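 further: bluetongue infection of BSR cells; cell survival read as ATP light after 72 h; 0% = infected wells without compound and 100% = uninfected wells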
# Arbovirus inh repeat = also measured in Arbovirus inh; calls as there; inhibition, %; measured here: 10K subset replicate screen; many hits read low in the repeat;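 first of two repeat runs on a subset; 0% = infected and 100% = uninfected wells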
# Starred values were filed as active, the others as inactive; u = inconclusive; x = not tested or not shown. This is a subset; the hit share may differ from the screen's.
# The opening 3 records, to show the layout:
SMILES,RecA splice inh,Mtb bLac sens,Mtb growth,YopH inh,Arbovirus inh,others
C/C(=N\NC(=S)NCc1ccccc1)c1ccc(Cl)cc1,6.2,-2.0,11.5%,-6.5,11.0,
Oc1ccccc1Nc1nc(NCC2CCCO2)c2ccccc2n1 (stereo unspecified),3.8,5.1,x,-22.2,-1.1,
C/C(=N\O)c1c(C)c2ccccc2n1C,-3.1,u,-8.1%,-12.3,3.2,

# This part in full, previewed entries included:
SMILES,RecA splice inh,Mtb bLac sens,Mtb growth,YopH inh,Arbovirus inh,others
C/C(=N\NC(=S)NCc1ccccc1)c1ccc(Cl)cc1,6.2,-2.0,11.5%,-6.5,11.0,
Oc1ccccc1Nc1nc(NCC2CCCO2)c2ccccc2n1 (stereo unspecified),3.8,5.1,x,-22.2,-1.1,
C/C(=N\O)c1c(C)c2ccccc2n1C,-3.1,u,-8.1%,-12.3,3.2,
COc1ccccc1NS(=O)(=O)c1cccc2nsnc12,2.5,7.5,12.0%,x,x,
COc1ccc(S(=O)(=O)NCCSc2ccc(Cl)cc2)cc1OC,3.3,2.2,-2.1%,-23.3,7.5,
COc1cccc(CNC(=O)c2cccnc2Sc2ccccc2)c1,0.8,-1.6,x,x,x,
O=C(/C=C/c1cccc(F)c1)OCC(=O)N1CCCc2ccccc21,-0.3,-1.0,x,x,x,
Cc1cc(NC(=O)c2cccs2)ncc1NC(=O)C(C)C,1.0,2.0,x,x,x,
COc1cc(S(=O)(=O)N(Cc2cccs2)CC2CCCO2)ccc1-n1cnnn1 (stereo unspecified),6.3,6.8,-6.7%,-21.1,4.9,
COc1ccc(CCC(=O)NCC2CCCCC2)cc1OC,-0.5,2.9,x,x,x,
CCSc1nnc(NC(=O)c2ccc(S(=O)(=O)N(C)C)cc2)s1,1.1,-3.1,4.7%,x,8.8,
CCCS(=O)(=O)C/C(N)=N/OC(=O)c1ccccc1Cl,5.6,-8.1,-0.9%,x,x,
CCOC(=O)c1cc(OC(=O)c2cccnc2)n(-c2ccccc2)n1,x,3.6,-4.1%,-3.8,-2.5,
CC(=O)Nc1ccc(NC(=O)C(C)n2nc([N+](=O)[O-])c(Br)c2C)cc1 (stereo unspecified),1.1,-0.8,-2.7%,-58.7,1.3,
CCC(Sc1nc(-c2ccccc2)c(-c2ccccc2)[nH]1)C(=O)O (stereo unspecified),1.5,-2.7,x,x,x,
CC1CCc2c(sc(NS(=O)(=O)c3ccccc3)c2C(=O)OC(C)C)C1 (stereo unspecified),x,-5.0,-3.6%,0.3,0.9,
O=C(COc1cccc(NC(=O)c2ccccc2)c1)c1ccccc1,-0.8,-3.9,-5.1%,x,-0.5,
O=C(N/N=C/c1ccccc1F)c1ccccc1OCc1ccccc1,1.8,-10.6,x,x,x,
O=C(NNC(=O)C1CC1c1ccccc1)c1ccccc1F (stereo unspecified),-1.7,-3.0,-5.7%,x,8.1,
CCOC(=O)N1CCN(c2nc(C(F)(F)F)nc3c(C)cc(C)cc23)CC1,-0.6,-6.2,-6.3%,-7.2,4.3,
C[C@]12C[C@H](O)[C@H]3[C@@H](CCC4=CC(=O)CC[C@@]43C)[C@@H]1CC[C@@H]2C(=O)CO,-3.3,-6.2,-4.4%,-52.1,20.4,
COc1ccc(-n2nc(C(=O)NCC(=O)NC3CCCCC3)c3ccccc3c2=O)cc1,-1.7,3.2,x,x,x,
CC1=CS(=O)(=O)CC1Sc1nc(C)n[nH]1 (stereo unspecified),-0.1,0.4,7.6%,x,12.0,
CCOc1ccc2nnc(-c3ccc(Br)cc3)n2n1,1.4,-5.9,-2.7%,-77.6,-9.0,
O=C(Cn1ccc(C(F)(F)F)n1)Nc1cccc(S(=O)(=O)N2CCCCC2)c1,-4.5,-0.1,-0.2%,x,6.3,

# More entries
SMILES,RecA splice inh,Mtb bLac sens,Mtb growth,YopH inh,Arbovirus inh,others
Cc1ccc(C2=NN(C(=O)c3cccs3)C(c3ccccc3O)C2)cc1 (stereo unspecified),-4.9,0.1,2.4%,x,-1.0,
CN(C)CCCN1CC(C(=O)O)CC1=O (stereo unspecified),2.6,13.5,1.1%,-38.5,-5.1,
Cc1ccc(/C=N/NC(=O)c2nnn(-c3nonc3N)c2CSc2ccccc2)cc1,1.3,-1.1,-3.1%,x,x,
COCC(=O)Nc1ccc(C(=O)Nc2ccccc2Cl)cc1,0.7,-14.1,-6.9%,x,-5.6,
FC(F)(F)c1ccccc1CN1CCCC(N2CCN(c3ccccc3)CC2)C1 (stereo unspecified),3.9,-12.3,x,x,x,
CCCN1C(=O)C2(C(C(=O)c3ccc(C)o3)=C(O)C(=O)N2CCCOC)c2ccccc21 (stereo unspecified),12.5,-4.2,-5.4%,x,x,
COc1cccc(NC(=O)Cc2csc(NC(=O)Nc3ccccc3OC)n2)c1,6.2,5.1,x,x,x,
Cc1cccn2c(=O)nc(SCC(=O)N3CCN(c4ccccc4)CC3)nc12,11.8,-5.6,x,x,x,
CC(C)N1CCN(C2CSCCSC2)CC1CCO (stereo unspecified),2.5,3.8,0.0%,x,x,
CCN(CC)S(=O)(=O)c1ccc(N2CCCC2)c(NS(=O)(=O)c2ccc([N+](=O)[O-])cc2)c1,0.4,1.4,-4.3%,-31.6,-2.6,
CCCCc1cc(=O)oc2cc(OC(C)C(=O)NCc3ccccn3)c(Cl)cc12 (stereo unspecified),-2.8,81.4,x,x,x,
COc1cc([C@@H]2[C@H]3CNCC=C3C(C#N)=C(N)C2(C#N)C#N)ccc1OC(C)C,-6.2,-3.8,-2.9%,-1.7,4.5,
CNC(=O)CN(c1cccc2ccccc12)S(C)(=O)=O,-0.6,-4.8,-9.4%,-22.4,6.0,
COc1ccc(CCN2C(=O)c3[nH]nc(-c4ccccc4O)c3C2c2ccc(C)cc2)cc1OC (stereo unspecified),x,4.7,4.2%,-10.0,-45.0,
O=C(NNC(=S)NC1CCCCC1)c1ccccc1Cl,5.4,-1.6,0.2%,x,2.0,
Cc1cccc(NC(=O)CCS(=O)(=O)c2ccc3c(c2)oc(=O)n3C)c1,2.5,-2.4,x,x,x,
COc1ccccc1-c1c(C)nn2c(C)cc(C)nc12,2.8,0.3,-5.9%,-13.2,0.2,Arbovirus inh repeat=0.0
Cn1c(=O)[nH]c(=O)c2c1nc(N1CCCC1)n2CCCSc1nc2ccccc2o1,-4.0,-1.4,-6.5%,-33.2,4.4,
CCSc1nc(CC)c2c(c1C#N)CCCC2,7.2,7.6,3.9%,-20.2,3.5,
CCn1c(SCC(=O)Nc2ccc(OC)c(OC)c2)nnc1-c1cccs1,x,-8.4,-7.1%,-36.1,4.0,
OC[C@H]1O[C@H](OCc2ccccc2)[C@H](O[C@@H]2OC[C@@H](O)[C@H](O)[C@H]2O)[C@@H](O)[C@@H]1O,0.7,-4.5,x,x,x,
CCc1c(C(=O)N/N=C/c2cccs2)nnn1-c1nonc1N,0.6,-4.8,x,x,x,
Cn1c(=O)oc2cc(S(=O)(=O)NCCN3CCN(c4ccccc4)CC3)ccc21,-1.6,6.8,-3.9%,-29.6,3.5,
Cc1ccc(OCCn2cccn2)c(C)c1,-2.3,0.3,4.9%,x,-2.4,
Cc1ccc(N2CCCn3c2cc(C)c(C#N)c3=O)cc1C,7.6,-4.1,3.0%,29.4,15.7,

# Next section
SMILES,RecA splice inh,Mtb bLac sens,Mtb growth,YopH inh,Arbovirus inh,others
O=C(c1cnc2ccc(Cl)cc2c1Cl)N1CCOCC1,-0.4,x,4.8%,x,-1.2,
Cc1cs/c(=N\N=C\c2ccc(O)cc2)n1Cc1ccco1,-4.9,3.9,4.0%,-16.4,-26.3,
Nc1c2c(nc3ccn(-c4ccccc4)c(=O)c13)CCCCC2,-1.2,-4.9,11.1%,-52.8,8.0,
COc1ccc(S(=O)(=O)N2CCN(Cc3c[nH]c4ccccc34)CC2)cc1,-2.9,-11.6,2.3%,-18.9,22.6,Arbovirus inh repeat=18.7
CC(NCc1ccc(OCc2ccc(Cl)cc2)cc1)C(O)c1ccccc1 (stereo unspecified),10.2,99.4,12.0%,x,-34.4,
O=C(CC(CC(=O)c1ccccc1)C(=O)O)c1ccccc1,1.7,-22.1,-0.5%,-11.5,3.0,
O=C(Nc1ncc(Cc2cc(Cl)ccc2Cl)s1)c1ccc([N+](=O)[O-])cc1,-4.0,-9.0,u,-18.6,-16.7,
CCOC(=O)CC1(NC(=O)C2CCC(=O)N(CCc3ccccc3)C2)CCCCC1 (stereo unspecified),1.0,-1.6,x,x,x,
COC(=O)c1cc(NC(=O)Cc2ccccc2[N+](=O)[O-])cc(C(=O)OC)c1,-2.0,u,2.8%,-6.9,5.5,
CC(C)N1CCN(Cc2ccc(OCc3ccccc3)cc2)CC1CCO (stereo unspecified),-0.4,-4.9,-9.2%,x,-33.8,
O=C(c1ccc(COc2ccccc2Cl)o1)N1CCOCC1,0.0,-0.8,x,x,x,
C=CCNC(=O)/C(=C/c1cccc([N+](=O)[O-])c1)NC(=O)c1ccco1,-0.9,-12.1,-3.0%,x,3.9,
Cc1ccc(C(=O)CSc2ncnc3sc4c(c23)CCCC4)cc1,-0.3,-7.3,0.8%,-10.8,7.8,
CCn1c(/C=C/c2c(C)n(CC)c3ccccc23)nc2ccccc2c1=O,2.4,-0.7,-1.9%,-9.2,-3.1,
COc1ccccc1-c1n[nH]c(=S)n1-c1ccccc1,1.8,-2.5,2.3%,-46.6,-3.1,
N#C/C(=C\c1ccc2c(c1)OCCO2)C(=O)Nc1ccc(C(=O)O)cc1,-0.6,-0.7,x,x,x,
CCOC(=O)c1c(-c2ccc(C)cc2)csc1NC(=O)c1ccc(N2C(=O)CCC2=O)cc1,0.5,2.6,-5.5%,-25.1,-8.8,
CC(C)(C)n1nnnc1C(c1cccnc1)N(Cc1ccccc1)Cc1cccs1 (stereo unspecified),24.7,-3.8,-4.4%,-9.1,-16.9,
CCN1C(=O)C(=C2C=C(C)OC(C)=C2)C(=O)N(CC)C1=S,1.0,4.2,-6.1%,x,5.7,
CN1C(C(=O)Nc2ccc(OC(F)(F)F)cc2)=CC(c2ccc3c(c2)OCO3)=NS1(=O)=O,-17.5,-3.2,x,x,x,
CCC(C)(C)n1nnnc1C(c1cc2cc(C)cc(C)c2[nH]c1=O)N1CCN(C(=O)c2ccco2)CC1 (stereo unspecified),1.4,-0.2,-4.9%,-28.4,-2.3,
CCOc1ccc(Nc2ccc([N+](=O)[O-])c3nonc23)cc1,0.9,98.7,x,x,x,
Cc1ccc(C(=O)NC(=S)NCc2cccnc2)cc1,-2.9,4.5,-0.2%,x,-0.8,
O=c1c2cc3c(nc2[nH]c(=S)n1-c1ccccc1)CCCC3,x,-2.7,-3.3%,x,x,
CCCC(C(=O)NC(C)(C)CC)N(Cc1ccco1)C(=O)CNS(=O)(=O)c1ccccc1 (stereo unspecified),5.4,-3.7,x,x,x,

# The list goes on:
SMILES,RecA splice inh,Mtb bLac sens,Mtb growth,YopH inh,Arbovirus inh,others
CS(=O)(=O)c1ccc(Cl)c(C(=O)NCC2CCCCC2)c1,-0.8,1.3,x,x,x,
Cc1cnc(C(=O)N2CCCC(C(=O)c3ccc(Cl)cc3C)C2)cn1 (stereo unspecified),0.4,1.1,3.8%,x,4.2,
O=C(Cc1cnc2ncnn2c1)N1CCc2c([nH]c3ccccc23)C1c1ccccn1 (stereo unspecified),0.5,-4.3,4.5%,x,-14.9,
Cn1c(=O)n(C)c2cc(C(=O)c3ccccc3)ccc21,-2.9,-3.6,-8.0%,-5.2,-9.5,
Cc1[nH]c(C)c(S(=O)(=O)N(Cc2ccccc2)C(C)C)c1C(=O)N1CCCC1,-4.7,-0.6,x,x,x,
Cc1ccc(N2C(=O)CC(N3CCN(C4CCc5ccccc5C4)CC3)C2=O)cc1 (stereo unspecified),-0.3,-5.5,-7.3%,-42.8,11.2,Arbovirus inh repeat=0.7
Cc1cc(C)nc(Sc2c(C)n[nH]c2C)n1,0.2,12.1,3.8%,-12.8,2.9,
Cc1ccc(N2C(=O)C(O)(C(F)(F)F)C3=C2CC(C)(C)CC3=O)cc1C (stereo unspecified),0.5,-3.0,-6.7%,-18.5,15.8,
COc1ccc(-n2c(C)cc(C(=O)CN3CCC(C)CC3)c2C)cc1,-1.2,-3.1,-2.6%,x,-5.8,
Cc1nn(-c2ccccc2)c(N2CCCC2)c1/C=N/NC(=O)c1cc(-c2ccccc2)nc2ccccc12,-0.8,67.8,u,-27.2,17.2,
CN(C)/C=C/C(=O)C(Cl)(Cl)Cl,-2.0,-4.8,-3.3%,x,12.8,
O=C(N[C@@H](Cc1ccccc1)C(=O)O)c1cccs1,1.5,4.6,x,x,x,
COc1ccc(/C(C)=N/OC/C(O)=C(\C#N)c2nc3ccccc3[nH]2)c(OC)c1,-3.4,17.6,-1.8%,-25.0,1.2,
N#C/C(=C(/O)c1ccc([N+](=O)[O-])cc1)c1nnc2n1CCCCC2,6.6,-4.2,-0.2%,x,8.4,
